High-throughput results from PubChem.
PKD1 kinase inh = inhibitors of human PKD1 kinase, biochemical, fluorescence polarization. Serine/threonine-protein kinase D1 (Homo sapiens), Q15139. PKD1 kinase fluorescence polarization assay. inhibition, %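 (about 10 µM by stock and volumes)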. 0.056% of 200,000 active;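 active = inhibition of 50% or more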;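 note: controls were vehicle for no effect and a reference inhibitor for full effect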
RGS16-Gao = modulators of RGS16 binding to Galphao, primary screen, biochemical, human proteins, multiplexed bead flow cytometry | bead-based flow cytometry RGS16-Galphao binding, fluorescence; actives lie on both sides | binding response (% of control), % at 10 µM | 0.38% of 220,000 active | AID 1441, 2008;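 active = below 25% or above 175%, edge rows of some plates excepted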;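 note: Galphao activated by GDP with aluminum fluoride before binding; 100% = wells without compound and 0% = beads without RGS; some results beyond the cut were filed as inactive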
Target sequence (O15492 whole entry, looked up): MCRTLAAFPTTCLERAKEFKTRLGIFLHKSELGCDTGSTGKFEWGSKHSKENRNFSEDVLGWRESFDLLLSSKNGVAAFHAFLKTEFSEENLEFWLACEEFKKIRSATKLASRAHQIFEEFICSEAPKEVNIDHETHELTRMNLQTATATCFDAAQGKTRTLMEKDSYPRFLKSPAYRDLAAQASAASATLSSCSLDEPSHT
Target sequence (P09471 whole entry, looked up): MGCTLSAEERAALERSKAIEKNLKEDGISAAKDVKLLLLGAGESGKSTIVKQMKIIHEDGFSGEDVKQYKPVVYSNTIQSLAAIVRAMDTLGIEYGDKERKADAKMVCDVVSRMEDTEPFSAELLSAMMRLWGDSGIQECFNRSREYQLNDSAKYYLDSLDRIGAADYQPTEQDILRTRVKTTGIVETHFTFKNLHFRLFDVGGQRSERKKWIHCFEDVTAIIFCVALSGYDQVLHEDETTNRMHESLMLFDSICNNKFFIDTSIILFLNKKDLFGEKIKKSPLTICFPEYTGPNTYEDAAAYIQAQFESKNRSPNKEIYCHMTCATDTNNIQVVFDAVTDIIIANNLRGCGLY
GALR2 ag = GALR2 receptor agonists, primary screen, cell-based; Galanin receptor type 2 (Homo sapiens), O43603; GALR2-expressing cells, agonist activation read-out; activation, %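 (tested at 5 µM)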; 0.48% of 140,000 active; AID 803, 2007;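 active = above mean plus 3 SD of all compounds, about 5% in these data, not always enough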;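 note: 0% = vehicle buffer wells and 100% = reference agonist at full effect; tested in CHO reporter cells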
Target sequence (O43603 whole entry, looked up): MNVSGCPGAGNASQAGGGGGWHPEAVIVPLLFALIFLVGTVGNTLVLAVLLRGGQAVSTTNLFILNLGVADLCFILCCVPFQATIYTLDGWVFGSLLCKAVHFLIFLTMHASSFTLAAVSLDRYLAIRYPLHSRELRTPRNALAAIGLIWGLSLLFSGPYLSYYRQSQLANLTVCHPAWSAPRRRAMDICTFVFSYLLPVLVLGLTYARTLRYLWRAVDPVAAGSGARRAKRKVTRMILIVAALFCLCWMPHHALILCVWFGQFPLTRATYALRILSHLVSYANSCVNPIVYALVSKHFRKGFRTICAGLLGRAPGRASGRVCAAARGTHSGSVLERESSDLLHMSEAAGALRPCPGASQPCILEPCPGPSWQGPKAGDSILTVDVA
HSV replic up = enhancers of HSV replication in host cells, fold increase, host cell viability | maximum fold increase | HSV replication augmentation in cells | 0.005% of 220,000 active | AID 1956, 2009;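 active = peak rise of 1.5-fold or more in the series; tested in PC3 cells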;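 note: first round at 10 µM; read as green reporter fluorescence; hits show the peak of a series up to 25 µM; 1 = signal of infected wells without compound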
Insulin prom inh = inhibitors of insulin promoter-driven GFP, primary screen, imaging, TRM-6 cells (human fetal islet line), eGFP reporter, cell count | 0.9% of 130,000 active | inhibition, % at 2 µM | reporter expression induced with tamoxifen | AID 1273, 2008;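 active = inhibition above the mean plus 3 SD, with well images judged a real hit on visual review, cut at about 60% in these data, passing the limit was not always enough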
Insulin prom inh cell count = recorded beside Insulin prom inh, whose call it bears; normalized cell count, %; measured here: cell count, toxicity; reference of the scale not given here;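 cells exposed to compound for 48 h; stained nuclei by imaging scaled within each plate; lower means fewer cells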
HSV replic up primary fold = also measured in HSV replic up; calls as there; fold increase; compound at 10 µM; measured here: primary screen fold increase 10 uM; tested in PC3 cells;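 GFP signal in the first replicate; 1 = infected wells without compound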
* = called active by the depositor; i = inactive; x = not tested or not shown.

Below each compound – PKD1 kinase inh	RGS16-Gao	GALR2 ag	HSV replic up	HSV replic up primary fold	Insulin prom inh	Insulin prom inh cell count
Cc1ccc(C)c(NC(=O)COC(=O)c2cccc3c2C(=O)c2ccccc2C3=O)c1
    0	90	-0.3	i	0.97	-52	82
O=C(CSc1nnc(Cc2ccccc2)o1)NC1CC2CCC1C2 (configuration not stated)
    0	84	-2.4	i	1	71	97
Cc1ccc(C(=O)N/C(=C/c2ccccc2)C(=O)NCC2CCCO2)cc1 (configuration not stated)
    5	99	x	i	1	x	x
OCCN1CCN(CCOc2ccccc2-c2ccccc2)CC1
    9	59	0.5	i	0.98	x	x
CCOC(=O)C1=NNC2(CC(=O)N(c3cc(C)cc(C)c3)C2=O)C1 (configuration not stated)
    x	101	x	i	1	x	x
O=C(Cn1nnc(-c2ccccc2NC(=O)c2ccco2)n1)NC1CCCCC1
    -8	103	-2.3	i	0.94	18	125
C=CCNC(=O)c1ccccc1NC(=O)C1COc2ccccc2O1 (configuration not stated)
    -1	105	x	i	0.91	-471	80
Cc1ccc(/C=C/c2ccc(=O)n(Cc3ccc(Cl)cc3Cl)n2)cc1
    9	48	-2.1	x	x	-7	104
CCCn1c(Cc2ccccc2)nnc1SCC(=O)N1CCOCC1
    -9	70	-0.8	i	1	22	94
CCCC12CN3CC(C)(CN(C1)C31CCCCC1)C2=O
    -2	187	-2.5	i	0.9	8	175
O=C(Oc1ccccc1)c1cccc(N2C(=O)CCC2=O)c1
    1	106	0.4	i	1	-6	91
O=C(Nc1ccccc1)c1cccc(Cn2cc(C(F)(F)F)ccc2=O)c1
    x	107	x	i	1.3	x	x
O=C(CC1C(=O)NCCN1CC1CCCCC1)NCc1ccccc1Cl (configuration not stated)
    -4	101	x	i	0.91	x	x
CN(C)C(=O)c1ccc(-c2cc(C(F)(F)F)nn2C)s1
    x	100	x	i	1.1	x	x
Cc1nc2nc(NCc3cccs3)nn2c(C)c1Cl
    -5	103	-0.1	i	0.95	-28	63
O=P1(O)C=C(c2ccccc2)OC(c2ccccc2)=C1
    6	101	-2.1	x	x	x	x
Cc1ccc(S(=O)(=O)c2c(C)nn(C(C)(C)C)c2OC(=O)CC(C)C)cc1
    -2	99	x	i	1.1	x	x
O=C(c1ccc(Cl)c(S(=O)(=O)NCc2ccccc2)c1)N1CCN(c2ccccn2)CC1
    -6	95	-1.4	i	0.86	-14	74
COc1ccc(OC)c(CNn2c(-c3ccccc3F)nc3ccccc3c2=O)c1
    3	104	x	i	0.8	7	83
CC(=O)N/N=C(\C)CCc1ccccc1
    1	99	x	i	0.89	x	x
Cc1cc(C)c(C#N)c(Sc2ccccc2N)n1
    2	90	x	i	1	x	x
CN(C(=O)CSc1nc2c(c(=O)[nH]1)CCCC2)C1CCCCC1
    -10	112	-1.3	i	0.73	-4	102
CS(=O)(=O)N(CC(=O)Nc1ccc(F)c(F)c1)c1cccc([N+](=O)[O-])c1
    2	103	0.9	i	1.1	x	x
CCN(CCn1cccn1)C(=O)CCc1nnc(-c2ccccc2)o1
    0	107	x	i	1	x	x
C/C(=N\NC(=O)c1c(Br)cnn1C)c1ccc(NC(=O)c2ccc(F)cc2)cc1
    -3	88	x	i	0.86	x	x
Cc1cccc(NC(=O)c2ccc(Cl)c(NC(=O)c3ccncc3)c2)c1C
    3	115	x	i	1.1	x	x
O=C1C(Cl)=C(NCCN2CCCCC2)C(=O)c2ccccc21
    -1	109	x	i	0.58	i	4
O=C(N=C1SCC(=O)N1c1ccccc1Cl)c1ccco1
    -1	99	-1.5	i	1.1	25	113
O=C(Nc1ccc2c(c1)OCO2)Nc1ccc(Cl)cc1Cl
    4	87	-2.4	i	0.98	x	x
C/C(=N\NC(=O)CNc1cccc(C(F)(F)F)c1)c1cccs1
    -1	107	x	i	1	-17	75
NC(=O)c1ccc(-n2nnnc2Oc2ccc(Br)cc2)cc1
    -4	112	x	i	0.96	58	52
COc1ccc(CCn2c(=O)[nH]c3cc(C(=O)NCCCN4CCOCC4)ccc3c2=O)cc1OC
    x	98	x	i	1.2	x	x
CN(Cc1ccccc1F)c1nc(-c2cccs2)nc2ccccc12
    -5	100	0.3	i	0.92	-3	150
CC(C)=Nc1ccccc1C1COC(=O)C1=N (configuration not stated)
    -7	80	-1.3	i	0.89	8	133
CCC(C)Nc1nc(C)nc2c1oc1ccccc12 (configuration not stated)
    x	103	x	i	0.87	x	x
CNC(=S)N/N=C/c1ccc(OCc2ccccc2)c(Br)c1
    7	107	7.4*	i	0.81	x	x
COCCn1c(SCc2cc(=O)n3ccsc3n2)nnc1-c1ccncc1
    -2	95	x	i	0.99	19	92
Cc1cccc(Nc2nc(N)c([N+](=O)[O-])c(NCc3ccco3)n2)c1
    -1	103	2.1	i	0.83	12	147
CCOc1ccccc1-n1c(SCC(N)=O)nnc1-c1ccc(O)cc1
    -7	104	-1.4	i	0.86	x	x
N#C/C(=N\Nc1ccccc1F)c1nc(-c2ccccc2)cs1
    -2	99	x	i	1.1	-12	128

Full records, looked up by structure.
Cc1cccc(Nc2nc(N)c([N+](=O)[O-])c(NCc3ccco3)n2)c1 is listed as PKD1 kinase inh = -1; RGS16-Gao = 103; GALR2 ag = 2.1; HSV replic up = i; HSV replic up primary fold = 0.83; Insulin prom inh = 12; Insulin prom inh cell count = 147
COc1ccc(CCn2c(=O)[nH]c3cc(C(=O)NCCCN4CCOCC4)ccc3c2=O)cc1OC is listed as PKD1 kinase inh = x; RGS16-Gao = 98; GALR2 ag = x; HSV replic up = i; HSV replic up primary fold = 1.2; Insulin prom inh = x; Insulin prom inh cell count = x

The list goes on.
Below each compound – PKD1 kinase inh	RGS16-Gao	GALR2 ag	HSV replic up	HSV replic up primary fold	Insulin prom inh	Insulin prom inh cell count
Cc1cc(C(=O)NCc2cc(C(=O)O)co2)co1
    5	102	x	i	0.81	x	x
CCCc1cc(-c2n[nH]c(=S)n2C(C)c2ccccc2)cs1 (configuration not stated)
    5	104	-0.2	i	0.97	30	89
COc1ccc(CNCC(=O)Nc2cccc(S(N)(=O)=O)c2)cc1
    4	98	x	i	1	x	x
OCC#Cc1cnc2ccccc2c1
    -7	97	0.0	i	0.94	x	x
CC(=O)N/N=C(\C)CC(=O)Nc1ccc2c(c1)OCCO2
    0	101	x	i	0.65	x	x
Fc1ccccc1COc1cccc(/C=N/n2cnnc2)c1
    1	108	-1.3	i	0.85	6	55
COc1cccc(-c2cc3nc(-c4ccccc4)cc(N4CCC5(CC4)OCCO5)n3n2)c1
    7	112	1.5	i	0.88	-34	78
CC(O)(CS(=O)(=O)Cc1ccccc1)C(=O)Nc1ccc(C(F)(F)F)cc1 (configuration not stated)
    7	101	-1.0	i	0.92	x	x
COCCOC(=O)C1=C(C)NC2=C(C(=O)CCC2)C1c1ccc(N(C)C)cc1 (configuration not stated)
    -14	x	-2.5	i	0.84	x	x
CC(=O)C1=C(O)C(=O)N(CCCN2CCOCC2)C1c1ccccc1[N+](=O)[O-] (configuration not stated)
    x	97	x	i	1.1	x	x
O=C(CN1CCCCC1)Nc1cccc(-n2cnnn2)c1
    0	105	0.1	i	0.94	44	56
COc1ccc(-c2[nH]c(-c3ccc(Cl)cc3)nc2SCC(=O)Nc2nccs2)cc1
    -3	x	4.4	i	0.58	10	73
CC(C)(C)N1C(=O)c2ccccc2NC(=O)N1Cc1ccc(Br)cc1
    12	96	-3.2	i	0.95	19	119
C=CCn1c(C)cc(C(=O)COc2nncc3ccccc23)c1C
    4	97	-2.8	i	1	x	x
Cc1cc(Oc2ccc([N+](=O)[O-])cc2)nc(N2CCOCC2)n1
    x	98	x	i	1	x	x
Cc1cccc(Cc2nnc(CCC(=O)NCc3ccncc3C)o2)c1
    -5	80	x	i	1	-25	103
CSc1nncc(=O)[nH]1
    1	100	0.3	i	0.95	-8	212
CC(=O)N(c1cccc(Br)c1)C1C=CS(=O)(=O)C1 (configuration not stated)
    -2	99	-3.6	i	0.86	-265	100
COc1ccccc1NC(=O)Cn1nnc(C(=O)NCCc2ccccc2)c1N
    8	100	x	i	1	37	112
COc1ccc(-n2ncc3c(NCCN4CCOCC4)ncnc32)cc1
    1	109	-0.8	i	1.1	21	78
Cc1ccc(C2=NN(C(=O)CCC(=O)O)C(c3cccs3)C2)cc1 (configuration not stated)
    x	108	x	i	1.2	x	x
CC(=O)Nc1ccc(NC(=O)c2ccc(Cn3cc(Cl)cn3)cc2)cc1
    -4	104	-0.7	i	0.92	x	x
Cc1ccccc1NC(=O)COc1ccc(Br)cc1C
    1	107	-1.2	x	x	-431	76
CCCCC(O)(CCCC)C(=O)NN(C(=O)CCl)c1ccccc1
    -7	76	-1.5	i	1	x	x
CC1CC(C)CN(CC(=O)NCCc2ccc(S(N)(=O)=O)cc2)C1 (configuration not stated)
    -2	101	x	i	0.95	x	x
COc1ccc(-c2noc(-c3ccco3)n2)cc1OC
    -10	99	-2.2	i	0.96	27	135
CCCc1ccc(C(=O)NNC(=O)c2ccc(Cl)cc2)cc1
    5	100	-1.2	i	0.83	0	103
Brc1c(-c2ccccc2)nc2n1Cc1ccccc1-2
    x	95	x	i	0.93	x	x
COc1cc(/C=N/NC(=O)/C(=C\c2ccc([N+](=O)[O-])cc2)NC(=O)c2ccccc2)cc(OC)c1O
    2	54	-1.2	i	0.77	28	59
Cc1ccc(C(=O)COC(=O)c2ccc(Br)o2)cc1C
    -6	105	-0.6	i	0.96	x	x
NC(=O)c1ccccc1N/C=C/C(=O)c1ccccc1
    1	97	0.1	i	0.95	21	149
O=C(Cc1cccs1)Nc1nnc(COc2ccccc2)s1
    -1	x	-0.5	i	0.8	31	140
COc1ccc(CNC(=S)N/N=C/c2ccc(O)c(OC)c2)cc1
    0	95	-1.4	i	0.96	21	98

Gathered by group, the compounds so far containing an aryl methoxy group
Below each compound – PKD1 kinase inh	RGS16-Gao	GALR2 ag	HSV replic up	HSV replic up primary fold	Insulin prom inh	Insulin prom inh cell count
COc1ccc(OC)c(CNn2c(-c3ccccc3F)nc3ccccc3c2=O)c1
    3	104	x	i	0.8	7	83
COc1ccc(CCn2c(=O)[nH]c3cc(C(=O)NCCCN4CCOCC4)ccc3c2=O)cc1OC
    x	98	x	i	1.2	x	x
COc1ccc(CNCC(=O)Nc2cccc(S(N)(=O)=O)c2)cc1
    4	98	x	i	1	x	x
COc1cccc(-c2cc3nc(-c4ccccc4)cc(N4CCC5(CC4)OCCO5)n3n2)c1
    7	112	1.5	i	0.88	-34	78
COc1ccc(-c2[nH]c(-c3ccc(Cl)cc3)nc2SCC(=O)Nc2nccs2)cc1
    -3	x	4.4	i	0.58	10	73
COc1ccccc1NC(=O)Cn1nnc(C(=O)NCCc2ccccc2)c1N
    8	100	x	i	1	37	112
COc1ccc(-n2ncc3c(NCCN4CCOCC4)ncnc32)cc1
    1	109	-0.8	i	1.1	21	78
COc1ccc(-c2noc(-c3ccco3)n2)cc1OC
    -10	99	-2.2	i	0.96	27	135
COc1cc(/C=N/NC(=O)/C(=C\c2ccc([N+](=O)[O-])cc2)NC(=O)c2ccccc2)cc(OC)c1O
    2	54	-1.2	i	0.77	28	59
COc1ccc(CNC(=S)N/N=C/c2ccc(O)c(OC)c2)cc1
    0	95	-1.4	i	0.96	21	98
